Bioassay records from PubChem BioAssay.
V. cholerae QS = Vibrio cholerae quorum sensing activators, luminescence (AID 686977). V. cholerae quorum sensing reporter, luminescence, 6 h; higher luminescence means a stronger effect; most inactives read 0. luminescence at 50 µM unless noted; hits with a dose series show EC50 in µM. 9,400 tested, under 10 active;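 active = light above mean plus 3 SD and confirmed in a dose series; inconclusive = above that limit without a clear retest; inactive = below it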;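 also: raw light counts without normalisation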
Starred values were filed as active, the others as inactive; ? = inconclusive; [ ] = another dose, or the depositor's remark.

SMILES,V. cholerae QS
O=C(CCCCn1c(=O)c2ccccc2n(Cc2ccc(F)cc2Cl)c1=O)NCc1ccco1,0
O=C(c1ccccc1)c1ccc(OCCCN2CCCCC2)cc1,0
COc1ccccc1-n1c(C)nnc1SCC(N)=O,160
COc1ccccc1-n1cnc2cc(NC(=O)c3ccco3)ccc21,40
O=C(Nc1nc2ccc(Cl)cc2s1)c1ccc(Br)o1,0
COc1ccccc1/C=c1\sc2nc(-c3ccco3)nn2c1=O,0
CCOC(=O)c1c(C)nc(C)c(C(=O)OCC)c1-c1ccccc1,0
Cc1ccc(S(=O)(=O)N(CC(=O)N2CCN(c3ccccc3F)CC2)C2CCCCC2)cc1,40
CCN1CCN(C(=O)N[C@@H](C(=O)N[C@@H]2C(=O)N3C(C(=O)O)=C(CSc4nnnn4C)CS[C@H]23)c2ccc(O)cc2)C(=O)C1=O,40[10 µg/mL]
CCOc1cc(/C=C2/C(=O)NC(=O)N(c3ccc(CC)cc3)C2=O)ccc1OC(=O)c1cccs1,0
O=C(Nc1ccccc1)c1ccccc1NS(=O)(=O)c1ccc(Cl)s1,0
O=C(CCS(=O)(=O)c1ccccc1)Nc1nc2c(s1)CCCC2,0
COc1ccc2cc(C(C)C(=O)O)ccc2c1 (configuration not stated),0[10 µg/mL]
CC(C)C(=O)Nc1nc2cc3c(cc2s1)OCO3,0
O=C(Nc1ccccc1)OCC(CN1CCCCC1)OC(=O)Nc1ccccc1 (configuration not stated),?
Cc1nc(Nc2ccc(S(N)(=O)=O)cc2)oc1C,0
CCOc1ccccc1C1N(c2ccc(OC)cc2)C(=O)C2CCCN21 (configuration not stated),40
Cc1ccccc1OCCCN1C(=O)C(=O)c2cccc(C)c21,0
CCOC(=O)N1CCN(c2cc(NCCC(=O)O)c3c4c(onc24)-c2ccccc2C3=O)CC1,280
C/C(=N/NC(=O)CNc1ccc(C)cc1)c1ccc(Cl)cc1,0
O=C(CN(C(=O)CCNC(=O)c1ccco1)c1ccccc1)NC1CCCC1,0
COC(=O)c1ccccc1NC(=O)c1ccc(-c2ccc(Br)cc2)o1,0
COc1cc(S(=O)(=O)N2CCC(N3CCCCC3)CC2)ccc1-n1cnnn1,0
CCOc1ccc(-c2nnn(CC(=O)N3CCN(c4ccc(F)cc4)CC3)n2)cc1OCC,0
O=C(O)c1cc(-c2cccs2)nc2cc3c(cc12)OCCO3,0
CCN(Cc1ccccc1)C(=O)CSc1nc(C)cc2c1C(=O)OC2,40
C/C=C/c1ccc(OCCCNC2CCCC2)c(OC)c1,0
Cc1cccc(OCC(=O)Nc2ccc(N3CCN(S(C)(=O)=O)CC3)cc2)c1C,0
CCNc1nc(Oc2ccc(=O)n(C)n2)nc(N2CCOCC2)n1,0
CCCCn1c(SCC(=O)Nc2cccc(OC)c2)nc2ccc(N3CCOCC3)cc2c1=O,0
Cc1ccc(Cl)cc1N1CCN(C(c2cccnc2)c2nnnn2C2CCCCC2)CC1 (configuration not stated),0
CCN(CCNC(=O)Cn1cc2c(n1)CCCC2)c1ccccc1,360
CCOC(=O)c1c(C)[nH]c(C)c1C(=O)CSc1nnc(-c2cc(OC)c(OC)c(OC)c2)o1,0
CCNC(=O)Cn1cnc2c1c(=O)n(C)c(=O)n2C,0
CCCCN(CCCNc1ncnc2nc[nH]c12)c1ccccc1,0
Cc1c(S(=O)(=O)N2CCOCC2)c(=O)n(C)c(=O)n1C,40
O=C1CC(C(=O)N2CCOCC2)C2(CCCC2)O1 (configuration not stated),0
O=C(/C=C/c1ccc(F)cc1)NCCC1=CCCCC1,0
C=CCn1c(=NC(=O)CN2C(=O)CCC2=O)sc2cccc(OC)c21,80
C#CCN(C)CCCOc1ccc(Cl)cc1Cl,0[10 µg/mL]
CCNC(=S)N(Cc1ccc(OC)cc1)C1CC(=O)N(c2ccc(OCC)cc2)C1=O (configuration not stated),0
COc1ccc(C2C(C(=O)Nc3cccnc3)=C(C)Nc3nc(-c4cccs4)nn32)cc1OC (configuration not stated),40
C/C(=N\NS(C)(=O)=O)c1ccccc1,0
COc1ccc(N2C(=O)CCC(C(=O)NCCN3CCOCC3)C2c2ccc(OC)c(OC)c2)cc1 (configuration not stated),0
COc1cc(CNCCSc2nnnn2C)cc(OC)c1OC,0
Cc1ccccc1C(OCCN(C)C)c1ccccc1 (configuration not stated),40[10 µg/mL]
COCCn1c(-c2ccc(OC)cc2)cnc1SCC(=O)Nc1cccc2ccccc12,40
CO[C@@H]1[C@@H](O[C@@H]2O[C@H](C)[C@@H](O[C@H]3C[C@@](C)(O)[C@@H](O)[C@H](C)O3)[C@H](N(C)C)[C@H]2O)[C@@H](CC=O)C[C@@H](C)[C@@H](O[C@H]2CC[C@H](N(C)C)[C@@H](C)O2)/C=C/C=C/C[C@@H](C)OC(=O)C[C@H]1O,40[10 µg/mL]
c1nc(NC2CCCCCC2)c2[nH]cnc2n1,0
COc1ccc(N2CCN(CC(=O)N3CCC(C)CC3)CC2)cc1,0
COc1ccc(-c2c(C)oc3c(CN4CCN(C)CC4)c(O)ccc3c2=O)cc1,40
COC(=O)CSc1nnc(C)n1-c1cccc(C#N)c1,80
COC(=O)c1[nH]c2cccc(OC)c2c1NC(=O)C(C)N1CCC(C)CC1 (configuration not stated),0
CCOC(=O)c1cc(-c2nnc(-c3ccc(Oc4ccccc4)cc3)o2)c(C)nc1C,0
CCCCCCC1CC(CCC(=O)Nc2ccc([N+](=O)[O-])cc2)C(=O)O1 (configuration not stated),0
OC1(CN2CCOCC2)C2CN3CCN(C2)CC1(c1ccccc1)C3 (configuration not stated),0

Individual results from the entries so far.
CCCCCCC1CC(CCC(=O)Nc2ccc([N+](=O)[O-])cc2)C(=O)O1 (configuration not stated) – V. cholerae QS: 0
OC1(CN2CCOCC2)C2CN3CCN(C2)CC1(c1ccccc1)C3 (configuration not stated) – V. cholerae QS: 0
COC(=O)CSc1nnc(C)n1-c1cccc(C#N)c1 – V. cholerae QS: 80
COc1ccc(-c2c(C)oc3c(CN4CCN(C)CC4)c(O)ccc3c2=O)cc1 – V. cholerae QS: 40
c1nc(NC2CCCCCC2)c2[nH]cnc2n1 – V. cholerae QS: 0

4 records drawn at random from the list so far, as already listed:
SMILES,V. cholerae QS
Cc1ccc(Cl)cc1N1CCN(C(c2cccnc2)c2nnnn2C2CCCCC2)CC1 (configuration not stated),0
CCOc1ccccc1C1N(c2ccc(OC)cc2)C(=O)C2CCCN21 (configuration not stated),40
O=C1CC(C(=O)N2CCOCC2)C2(CCCC2)O1 (configuration not stated),0
CCOC(=O)c1c(C)[nH]c(C)c1C(=O)CSc1nnc(-c2cc(OC)c(OC)c(OC)c2)o1,0

Further results follow:
SMILES,V. cholerae QS
CC(=O)[C@H]1CC[C@H]2[C@@H]3CCC4=CC(=O)CC[C@]4(C)[C@H]3CC[C@]12C,0[10 µg/mL]
CCC(=Nc1ccc2c(c1)CCC2)c1c(O)n(C2CCCCC2)c(=O)[nH]c1=O,0
Fc1ccc(N2CCN(c3ncnc4nc[nH]c34)CC2)cc1,0
Cn1c(C(=O)NCCCN2CCN(c3cccc(Cl)c3)CC2)cc2c(=O)n(C)c3ccccc3c21,200
Cc1cccc(NC(=O)CS(=O)(=O)c2cn(C)c3ccccc23)c1,0
O=C(Cn1nnc2ccccc21)C1CC1,40
CN(C1CCCCC1)S(=O)(=O)c1ccc2c(c1)c(=O)c(C(=O)NCCCN1CCCC1)cn2C,0
COc1cc(C2Nc3cccc4cccc(c34)N2)cc(OC)c1OC(C)=O,?
NC(N)=NOCC[C@H](N)C(=O)O,40[10 µg/mL]
Clc1ccc(Cl)c(OCc2cc(-c3ccccc3Cl)on2)c1,0
OC1CCN(c2ncnc3nc[nH]c23)CC1,0
Cc1c(NC(=O)C2CCCN(S(=O)(=O)c3cnc[nH]3)C2)c(=O)n(-c2ccccc2)n1C (configuration not stated),0
Cc1c(N=Cc2c(O)n(C3CCCCC3)c(=O)[nH]c2=O)c(=O)n(-c2ccccc2)n1C,40
CSC1=NCCN1C(=O)c1ccc(S(=O)(=O)N2CCOCC2)cc1,0
CCn1c(=NC(=O)c2ccco2)sc2cccc(F)c21,40
CCOC(=O)C1CCN(c2ncnc3nc[nH]c23)CC1,?
CC(=O)C1C(c2ccc(OC(F)F)cc2)NC(=O)NC1(O)C(F)(F)F (configuration not stated),0
CCc1ccc(CN2CC(C(=O)O)CC2=O)cc1 (configuration not stated),40
CC(C)CC(=O)N[C@H](C(=O)N[C@H](C(=O)N[C@@H](CC(C)C)[C@@H](O)CC(=O)N[C@@H](C)C(=O)N[C@@H](CC(C)C)[C@@H](O)CC(=O)O)C(C)C)C(C)C,0[10 µg/mL]
COc1cccc(-n2nc(-c3ccnn3-c3ccc(F)cc3)c(=O)n(C)c2=O)c1,0
Cc1ccc(-c2nc3cccnc3o2)cc1NC(=O)COc1ccc(Cl)cc1C,40
Nc1ccc(S(=O)(=O)N2CC3CC(C2)c2cccc(=O)n2C3)cc1 (configuration not stated),0
Cc1ccc(C)c(N2CCN(C(=O)CN(C)S(=O)(=O)c3ccc4c(c3)CCC(=O)N4)CC2)c1,160
O=C(Nc1ccc(-n2ccnc2P(=O)(O)c2ccccc2)cc1)c1ccccc1Cl,40
COc1ccccc1NS(=O)(=O)c1cccs1,?
O=S(=O)(CCc1nc2ccccc2o1)c1ccc2ccccc2c1,40
Cc1cc(C)n(-c2ccc3cccc(NS(C)(=O)=O)c3n2)n1,40
CC(=O)N1CCN(c2ccc(OC[C@H]3CO[C@](Cn4ccnc4)(c4ccc(Cl)cc4Cl)O3)cc2)CC1,40[10 µg/mL]
Cc1ccc(C)c(N2CCN(C(=O)C3CCCN(S(=O)(=O)c4cnc[nH]4)C3)CC2)c1 (configuration not stated),40
COc1ccc(S(=O)(=O)Cc2ccc(C(=O)N3CCN(c4ccccc4F)CC3)o2)cc1,320
CC(=O)Nc1c(I)c(C(=O)N[C@H]2C(O)O[C@H](CO)[C@@H](O)[C@@H]2O)c(I)c(N(C)C(C)=O)c1I (some centres not stated),40[10 µg/mL]
N#CC1=C(N)N(c2ccccc2)C(=O)C1,40
CCCCCn1c(=O)c(C(=O)NCc2ccccn2)c(O)c2ccccc21,0
COCCCNC(=O)c1ccc(Cn2c(=O)c3ccccc3n(Cc3ccccc3C#N)c2=O)cc1,0
O=C(c1ccc(Br)cc1)N1CCN(S(=O)(=O)c2ccccc2)CC1,0
CCCn1cc(SCC(=O)NCC2CCCO2)c2ccccc21 (configuration not stated),0
COc1cccc(Cn2c(C3CC3)nc3ccc(NC(=O)c4ccco4)cc3c2=O)c1,0
CCOC(=O)c1sc(NC(=O)c2ccc(Cl)s2)cc1C,0
CCCCn1c(=O)cc(N2CCOCC2)[nH]c1=O,0
CCOc1ccc(N2CC(=O)SC2=S)cc1,0
CC(C)CN(C#N)c1nc(N2CCOCC2)nc(N2CCOCC2)n1,0
Cc1ccc(-c2cc(C(=O)Nc3cc(C)on3)c3ccccc3n2)c(C)c1,0
CCOC(=O)C1CCN(c2c(Nc3ccc4c(c3)OCCO4)c(=O)c2=O)CC1,40
O=C(Nc1ccc(F)cc1F)c1sccc1SCc1cccc(C(F)(F)F)c1,78µM*
O=c1cc(N2CCN(c3ccc(F)cc3)CC2)[nH]c(=O)n1Cc1ccc(F)cc1,40
C[C@]12N[C@H](Cc3ccccc31)c1ccccc12,40[10 µg/mL]
Cc1cccc(C)c1NC(=O)CSc1ncnc2nc[nH]c12,40
CCOC(=O)C1CCN(Cc2cnc(Oc3ccc(N)cc3)s2)CC1,0
O=C(Cn1[nH]c(=O)c2ccccc2c1=O)NC1CCCCCC1,40
COc1ccc(C2CC(c3ccc(Cl)cc3)n3nc(N)nc3N2)cc1 (configuration not stated),0
O=C(CSc1ncn[nH]1)Nc1nnc(-c2ccccc2)s1,0
COc1ccc(-c2nnn(CCC(=O)O)n2)cc1,40
O=C(COC(=O)C1CC2C=CC1C2)NCc1ccco1 (configuration not stated),40
CC(/C=N/Nc1nnc2c(n1)[nH]c1ccccc12)=C\c1ccco1,0
C[N+]12CCC(CC1)C(OC(=O)C(O)(c1ccccc1)c1ccccc1)C2 (configuration not stated),40[10 µg/mL]
Cc1ccc(Cn2nc(C)c(NC(=O)c3cc(C)no3)c2C)cc1,0

More structures follow:
SMILES,V. cholerae QS
CC1CCCC(C)N1C(=O)Cn1c(=O)sc2ccccc21 (configuration not stated),40
Cc1ccc(O)c(-c2cc(-c3ccccc3F)[nH]n2)c1,0
CCCn1c(CNC(=O)c2cccs2)nc2ccccc21,0
Cc1cccc(/C=C2/SC(=O)N(Cc3ccccc3)C2=O)n1,0
BrC(/C=N/Nc1nc(N2CCOCC2)nc(N2CCOCC2)n1)=C/c1ccccc1,?
Cc1nc2ccccc2c(=O)n1CCN1CCOCC1,0
COc1ccc(-c2onc(C)c2-c2ccc(C(=O)OC(C)C)o2)c(O)c1,40
COc1cc(OC)cc(-n2nnnc2SCC(=O)NC2CCCC2)c1,40
CC(C)(C)c1ccc(-c2csc(NC(=O)CN3C(=O)NC4(CCCCC4)C3=O)n2)cc1,40
Cc1ccc(-n2ncc3c(=O)n(Cc4ccccn4)cnc32)cc1C,40
O=S(=O)(Nc1ncnc2sc3c(c12)CCC3)c1ccc2ccccc2c1,0
O=C(c1ccco1)N1CCN(C(=O)C2CC(c3ccc(F)cc3)=NO2)CC1 (configuration not stated),40
O=C(Cn1[nH]c(=O)c2ccccc2c1=O)NCc1cccnc1,0
COC(=O)c1cc2nc(-c3ccc(OC)c(OC)c3)cc(C(F)(F)F)n2n1,40
Cc1nc(-c2cccc(NS(=O)(=O)c3cccc4ccccc34)c2)cs1,0
COc1ccc(C2CC(c3cccc(C)c3)n3nc(N)nc3N2)cc1 (configuration not stated),40
Cc1onc(-c2ccccc2Cl)c1C(=O)N1CCc2ccccc21,40

The list is partial (hit frequency here may not be typical).
